High-throughput results from PubChem.
ID4 SMM: binders of human ID4 protein | P47928 | small molecule microarray, Flag-ID4 binding, fluorescence F/B | calls only | actives 1.2% (n = 31,000);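 active = spot signal over background at p below 0.07 in all four prints; compounds were printed on slides so no solution concentration is given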;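 note: a binder raises fluorescence above local background on the spot; about 2 pmol printed per array spot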
Target sequence (P47928 whole entry, looked up): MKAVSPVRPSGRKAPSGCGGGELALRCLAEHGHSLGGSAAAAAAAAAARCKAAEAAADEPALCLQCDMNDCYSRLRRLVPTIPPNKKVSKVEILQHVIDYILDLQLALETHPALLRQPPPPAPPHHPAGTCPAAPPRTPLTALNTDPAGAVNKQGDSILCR
Calls only; i = inactive; + = active, no number.

The opening 4 entries, ahead of the listing:
SMILES	ID4 SMM
Cc1cc(NC(=O)C(=O)NCc2cccnc2)ccc1Br	i
O=C(CSC1CC(=O)N(c2ccc(Cl)cc2)C1=O)Nc1cccc(F)c1 (stereo not drawn)	i
C=CC[C@]1(C(=O)OC)N=C(c2ccc(OCCCO)cc2)O[C@H]1c1ccccc1	i
COc1cccc(NC(=O)CSc2nnc(-c3ccc(Cl)cc3)n2-c2ccc(F)cc2)c1	i

The listing, previewed entries included:
SMILES	ID4 SMM
Cc1cc(NC(=O)C(=O)NCc2cccnc2)ccc1Br	i
O=C(CSC1CC(=O)N(c2ccc(Cl)cc2)C1=O)Nc1cccc(F)c1 (stereo not drawn)	i
C=CC[C@]1(C(=O)OC)N=C(c2ccc(OCCCO)cc2)O[C@H]1c1ccccc1	i
COc1cccc(NC(=O)CSc2nnc(-c3ccc(Cl)cc3)n2-c2ccc(F)cc2)c1	i
O=C(N[C@H]1C=C[C@@H](CC(=O)N2CCN(c3ccccc3)CC2)O[C@H]1CO)c1ccccc1	i
Cc1ccc(Nc2nc(Oc3ccc(=O)[nH]n3)nc(N3CCOCC3)n2)cc1	+
COc1ccc2[nH]c(=O)c(CN(C)S(=O)(=O)c3ccc(C)cc3)cc2c1	i
C[C@@H]1CN([C@@H](C)CO)C(=O)c2cc(C#CCC3CCCC3)cnc2O[C@H]1CN(C)CC1CCOCC1	i
C[C@@H]1CN([C@H](C)CO)C(=O)c2cc(C#CC3(O)CCCC3)cnc2O[C@H]1CN(C)C(=O)C1CCC1	i
C=C1C[C@]23C[C@@]1(O)CC[C@H]2[C@@]12C=C[C@H](O)[C@@](C)(C(=O)O1)[C@H]2[C@@H]3C(=O)O	i
COc1ccccc1-n1c(SC(C)C(=O)N2CCCCC2)nc2ccc(I)cc2c1=O (stereo not drawn)	i
CCCC#Cc1cnc2c(c1)C(=O)N([C@H](C)CO)C[C@@H](C)[C@@H](CN(C)C(=O)Nc1ccccc1OC)O2	i
C[C@H](CO)N1C[C@H](C)[C@H](CN(C)Cc2ccccc2)Oc2ncc(-c3ccc(F)cc3)cc2C1=O	i
Cc1[nH]c2ccccc2c1C(=O)CSc1nc2ccccc2[nH]1	i
C=C1C(=O)O[C@@H]2[C@H]3C(CO)=CC(=O)C3=C(C)C[C@H](OC(=O)Cc3ccc(O)cc3)[C@@H]12	i
Cc1cc(Oc2ccccc2)nc(SCC(=O)Nc2ccccc2)n1	i
Cn1cnc(S(=O)(=O)N[C@H]2CC[C@H](CC(=O)N3CCN(c4ccccc4)CC3)O[C@@H]2CO)c1	i
Cc1cc(C)c(S(=O)(=O)N(CC(=O)O)Cc2ccc(Cl)cc2)c(C)c1	i
CC(NS(=O)(=O)c1ccc(F)cc1)C(=O)Nc1ccccc1F (stereo not drawn)	i
Cc1cc(OCC(=O)Nc2cccnc2)ccc1[N+](=O)[O-]	i
CCC(=O)N[C@H]1C=C[C@H](CC(=O)NCc2ccccc2OC)O[C@H]1CO	i
O=C(Cc1ccccc1)N[C@H]1CC[C@@H](CC(=O)N2CCCCC2)O[C@@H]1CO	i
COc1ccc(-c2cnc3c(c2)C(=O)N([C@H](C)CO)C[C@@H](C)[C@@H](CN(C)C(=O)NC2CCCC2)O3)cc1	i
Cc1snnc1C(=O)Oc1ccccc1-c1nnco1	i
CO[C@@H]1CN(C)C(=O)c2cc(NC(C)=O)ccc2OC[C@@H](C)N(Cc2ccncc2)C[C@H]1C	i
C[C@H]1CN([C@@H](C)CO)S(=O)(=O)c2ccc(C3=CCCC3)cc2O[C@H]1CN(C)C	i
C[C@H](CO)N1C[C@H](C)[C@@H](CN(C)C(=O)C2CCCCC2)Oc2ncc(-c3cccc(F)c3)cc2C1=O	i
CC(C)NC(=O)[C@@]1(C)c2ccccc2C(=O)N(Cc2cc(C(F)(F)F)cc(C(F)(F)F)c2)[C@H]1c1ccc(CO)cc1	i
CS(=O)(=O)Nc1ccc2c(c1)[C@@H]1C[C@@H](CC(=O)NCc3cccnc3)O[C@@H](CO)[C@@H]1O2	i
Cc1cc(C)c(S(=O)(=O)N2CCN(CC(O)COc3ccc4ccccc4c3)CC2)c(C)c1 (stereo not drawn)	i
Oc1c(C(Nc2ccccn2)c2cccc(F)c2)cc(Cl)c2cccnc12 (stereo not drawn)	i
COc1cccc(-c2ccc3c(c2)O[C@@H](CN(C)C)[C@H](C)CN([C@@H](C)CO)S3(=O)=O)c1	i
Cc1ccc(NC(=O)CSc2nc(-c3cccs3)cc(C(F)(F)F)n2)c([N+](=O)[O-])c1	i
C[C@H]1CN([C@@H](C)CO)S(=O)(=O)c2ccc(-c3cccc(C(=O)N(C)C)c3)cc2O[C@H]1CN(C)C(=O)Cc1ccccn1	i
Brc1ccc(CNc2nc3ccccc3n2CCN2CCOCC2)cc1	i
CNC[C@@H]1Oc2cc(C#CCC3CCCC3)ccc2S(=O)(=O)N([C@H](C)CO)C[C@H]1C	i

Structures listed so far that contain a Cl atom (4):
SMILES	ID4 SMM
O=C(CSC1CC(=O)N(c2ccc(Cl)cc2)C1=O)Nc1cccc(F)c1 (stereo not drawn)	i
COc1cccc(NC(=O)CSc2nnc(-c3ccc(Cl)cc3)n2-c2ccc(F)cc2)c1	i
Cc1cc(C)c(S(=O)(=O)N(CC(=O)O)Cc2ccc(Cl)cc2)c(C)c1	i
Oc1c(C(Nc2ccccn2)c2cccc(F)c2)cc(Cl)c2cccnc12 (stereo not drawn)	i

Going on with the list:
SMILES	ID4 SMM
CSc1ccccc1NC(=O)C(C)NS(=O)(=O)c1ccc(Cl)cc1 (stereo not drawn)	i
CNC[C@H]1Oc2cc(-c3cccnc3)ccc2S(=O)(=O)N([C@@H](C)CO)C[C@@H]1C	i
CCCN(C)C[C@H]1Oc2ncc(C#CCC(C)C)cc2C(=O)N([C@@H](C)CO)C[C@H]1C	i
C[C@@H]1CN([C@H](C)CO)C(=O)c2cc(C#Cc3ccncc3)cnc2O[C@@H]1CN(C)CC1CCCC1	i
Cc1cc(C)nc(Nc2n[nH]c(COc3cccc4cccnc34)n2)n1	i
CC(C)CC#Cc1cnc2c(c1)C(=O)N([C@H](C)CO)C[C@@H](C)[C@H](CN(C)Cc1cccc(F)c1)O2	i
COc1cc(NC(=O)C(C)Oc2cccc(Cl)c2)c(C(=O)O)cc1OC (stereo not drawn)	i
Cc1cccc(N(CC(=O)Nc2ccc(Cl)cc2)S(C)(=O)=O)c1C	i
C[C@H]1CN([C@@H](C)CO)C(=O)c2cc(C#Cc3ccccc3F)cnc2O[C@@H]1CN(C)C	i
Cc1ccc(OCC(O)Cn2cnc3ccccc32)cc1 (stereo not drawn)	i
CC1(C)CC(=O)c2c(oc3ccc(NS(=O)(=O)c4cccc5cccnc45)cc23)C1	i
C[C@H]1CN([C@@H](C)CO)C(=O)c2cc(C#CC3(O)CCCC3)cnc2O[C@H]1CN(C)Cc1cccnc1	i
COc1ccc(NC(=O)NCc2cc(C)n(C)n2)cc1OC	i
OCCN(CCO)Cc1ccc(Cl)cc1	i
Cc1ccc(N(C(C)C(=O)Nc2ccc(Br)c(C)c2)S(C)(=O)=O)cc1 (stereo not drawn)	i
COc1ccc(S(=O)(=O)N(C)CC(=O)Nc2cccc(C(F)(F)F)c2)cc1Cl	i
C[C@H]1CN([C@@H](C)CO)C(=O)c2cc(C#CC3(O)CCCC3)cnc2O[C@@H]1CN(C)Cc1ccccn1	i
C[C@@H]1CN([C@H](C)CO)S(=O)(=O)c2ccc(C#CC3CCCCC3)cc2O[C@@H]1CN(C)C	i
C[C@@H](NC(=O)C[C@H]1CC[C@H](NC(=O)CN2CCOCC2)[C@@H](CO)O1)c1ccccc1	i
O=C(Nc1ccc2c(c1)[C@@H]1C[C@H](CC(=O)N3CCc4ccccc4C3)O[C@H](CO)[C@@H]1O2)C1CCC1	i
COc1ccc(C(=O)Nc2ccccc2C(=O)OCc2cccc([N+](=O)[O-])c2)cc1	i
O=C(CSc1nnc(-c2ccc(Cl)cc2)n1-c1ccccc1)Nc1cccc(Cl)c1Cl	i
O=C1CC(c2ccccc2)Oc2ccccc21 (stereo not drawn)	i
C[C@@H]1CN([C@@H](C)CO)C(=O)c2cc(-c3ccccc3F)cnc2O[C@H]1CN(C)C(=O)NC1CCCC1	i

5 entries from above, reformatted:
Structure | ID4 SMM
COc1ccc(S(=O)(=O)N(C)CC(=O)Nc2cccc(C(F)(F)F)c2)cc1Cl | i
C[C@H]1CN([C@@H](C)CO)C(=O)c2cc(C#CC3(O)CCCC3)cnc2O[C@@H]1CN(C)Cc1ccccn1 | i
C[C@@H]1CN([C@H](C)CO)S(=O)(=O)c2ccc(C#CC3CCCCC3)cc2O[C@@H]1CN(C)C | i
C[C@@H](NC(=O)C[C@H]1CC[C@H](NC(=O)CN2CCOCC2)[C@@H](CO)O1)c1ccccc1 | i
O=C(Nc1ccc2c(c1)[C@@H]1C[C@H](CC(=O)N3CCc4ccccc4C3)O[C@H](CO)[C@@H]1O2)C1CCC1 | i

(next part)
SMILES	ID4 SMM
COc1ccccc1-c1nc(SCc2ccc(C(=O)O)cc2)n[nH]1	i
c1ccc(Cc2nc3c4c5c(sc4ncn3n2)CCCC5)cc1	i
C[C@@H]1CN([C@@H](C)CO)C(=O)c2c(c3ccccc3n2C)-c2ccccc2CO[C@@H]1CN(C)C(=O)NC1CCCCC1	i
C[C@@H]1CN([C@@H](C)CO)S(=O)(=O)c2ccc(-c3cccc(C#N)c3)cc2O[C@H]1CN(C)Cc1ccccn1	i
C[C@H]1CN([C@@H](C)CO)C(=O)c2cc(-c3cccnc3)cnc2O[C@@H]1CN(C)C(=O)Nc1ccc(C(F)(F)F)cc1	i
N#Cc1c(C(F)(F)F)cc(-c2cccs2)nc1SCC(O)CN1CCSCC1 (stereo not drawn)	i
COCC#Cc1cnc2c(c1)C(=O)N([C@H](C)CO)C[C@H](C)[C@H](CN(C)Cc1ccccc1F)O2	i
C/C=C/c1ccc2c(c1)O[C@@H](CN(C)CCC)[C@@H](C)CN([C@@H](C)CO)S2(=O)=O	i
C[C@@H]1CN([C@@H](C)CO)C(=O)c2cc(-c3cccc(F)c3)cnc2O[C@@H]1CN(C)Cc1ccccc1	i
CC(=O)N[C@H]1C=C[C@H](CC(=O)NCC2CCCCC2)O[C@H]1CO	i
C[C@@H]1CN([C@@H](C)CO)C(=O)c2cc(C#CCN(C)C)cnc2O[C@H]1CN(C)Cc1ccc(F)cc1	i
CN1CCN(c2ccc(CNS(=O)(=O)c3cccc4nonc34)cc2)CC1	i
CC(C)CC#Cc1ccc2c(c1)O[C@H](CN(C)C(=O)Cc1ccccn1)[C@H](C)CN([C@@H](C)CO)S2(=O)=O	i
O=C(N[C@H]1CC[C@@H](CCn2cc(-c3ccccc3)nn2)O[C@H]1CO)c1ccccc1F	i
O=C(C[C@@H]1C[C@H]2c3cc(NC(=O)Nc4ccc(C(F)(F)F)cc4)ccc3O[C@H]2[C@H](CO)O1)NCc1cc(F)ccc1F	i
CCn1c(SCC(=O)NC(C)(C)C)nnc1-c1cccc([N+](=O)[O-])c1	i
O=C(C[C@@H]1CC[C@H](NC(=O)Cc2ccccn2)[C@H](CO)O1)NCCc1ccccc1	i
O=C(C[C@H]1C[C@H]2c3cc(NC(=O)Nc4ccc(C(F)(F)F)cc4)ccc3O[C@H]2[C@H](CO)O1)NC1CCCCC1	i
CSc1ncc(Cl)c(C(=O)Nc2nnc(SC/C=C/c3ccccc3)s2)n1	i
COc1cccc(S(=O)(=O)N(C)C[C@H]2Oc3ncc(-c4cccc(C(=O)N(C)C)c4)cc3C(=O)N([C@H](C)CO)C[C@@H]2C)c1	+
Cc1ccccc1OCC(=O)Nc1cc(-c2nc3ccccc3s2)c(Cl)cc1Cl	i
CN(C)C(=O)[C@@]1(Cc2ccccc2N=[N+]=[N-])N=C(c2ccc(OCCCO)cc2)O[C@H]1c1ccccc1	i
O=C1O[C@H](c2ccccc2)[C@H](c2ccccc2)N2[C@H]1[C@@H](C(=O)O)[C@]1(C(=O)Nc3ccc(C#CCCO)cc31)[C@H]2c1ccc(OCCO)cc1	i
COc1ccc(Cl)cc1NC(=S)NCc1cccnc1	i
C[C@H]1CN([C@@H](C)CO)C(=O)c2cc(-c3ccc(F)cc3)cnc2O[C@@H]1CN(C)CC1CCCCC1	i
C[C@H]1CN([C@@H](C)CO)S(=O)(=O)c2ccc(-c3cccc(C(=O)N(C)C)c3)cc2O[C@@H]1CN(C)C(=O)Nc1ccccc1	i
O=C(N[C@@H]1C=C[C@@H](CC(=O)N2CCOCC2)O[C@H]1CO)c1ccc2c(c1)OCO2	i
COc1ccc2ccccc2c1C=C1C(=O)OC2(CCCC2)OC1=O	i
O=C(O)CC(Cc1ccc(Cl)cc1)C(=O)Nc1ccccc1I (stereo not drawn)	i
O=C(COc1ccccc1[N+](=O)[O-])Nc1ccc(N2CCN(C(=O)c3ccco3)CC2)cc1	i
C[C@@H]1CN([C@H](C)CO)S(=O)(=O)c2ccc(C#CC3CCCC3)cc2O[C@@H]1CN(C)Cc1cncnc1	i
CC1=C(C(=O)OC(C)C)C(c2ccccc2[N+](=O)[O-])n2ncnc2N1 (stereo not drawn)	i
Cc1c(Cl)cccc1NC(=O)c1ccc(OCC(=O)Nc2ccc(F)cc2)cc1	i
CC(C)c1nc2cc3sc(C(C)C)nc3cc2s1	i
COC(=O)c1ccccc1NC(=O)CN(C1CCCCC1)S(C)(=O)=O	i
C[C@@H]1CN([C@H](C)CO)S(=O)(=O)c2ccc(C#CC3CC3)cc2O[C@@H]1CN(C)C	i
Cn1c(SCC(=O)c2ccc(Br)cc2)nnc1-c1cccc([N+](=O)[O-])c1	i
C[C@@H]1CN([C@@H](C)CO)C(=O)c2cc(C#CC3CCCCC3)cnc2O[C@H]1CN(C)Cc1cccnc1	i
CCCN(C)C[C@H]1Oc2cc(C3=CCCC3)ccc2S(=O)(=O)N([C@H](C)CO)C[C@H]1C	i
C[C@H](NC(=O)C[C@H]1CC[C@@H](NC(=O)C2CCC2)[C@H](CO)O1)c1ccccc1	i
CS(=O)(=O)N(CC(=O)Nc1c(F)cccc1F)c1cccc(Cl)c1Cl	i
CCC(Oc1cccc(NC(=O)c2ccccc2[N+](=O)[O-])c1)C(=O)c1ccccc1 (stereo not drawn)	i
Cc1[nH]c2ccccc2c1C(=O)CSc1nnc(N)s1	i

Only part of the results is shown, so the mix of outcomes need not match the whole.
